Arbovirus inh: antivirals against arbovirus infection, primary screen, cell-based, full library, 10K replicate subset. arbovirus infection cell-based antiviral screen. inhibition, % at 10 µM. actives 0.37% (n = 200,000). AID 1251, 2008;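 active = inhibition from about 30%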;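 also: bluetongue infection of BSR cells; cell survival read as ATP light after 72 h; 0% = infected wells without compound and 100% = uninfected wells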
Mtb growth: M. tuberculosis H37Rv growth inhibitors, H37Rv strain (AID 1626) | inhibition, % at 10 µM; hits with a dose series show IC50 in µM | actives 0.95% (n = 220,000) | M. tuberculosis H37Rv growth inhibition; higher % means a stronger effect;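 active = confirmed in a dose series; inconclusive = inhibition above 80% but not taken into the dose series; inactive = below 80% or under 30% at every dose of the series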;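 also: bacteria incubated seven days before Alamar blue readout; 0% = bacteria only wells and 100% = bacteria with antibiotic wells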
Mtb bLac sens: beta-lactam sensitization of Mtb H37Rv, H37Rv; M. tuberculosis H37Rv growth with meropenem, percent inhibition; hits of this screen are not shown here; inhibition, % at 25 µM; actives 0.27% (n = 330,000); AID 434955, 2010;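 active = about 74% or more and at least 40 points above the plate without the antibiotic, then above 30% in a dose series; inconclusive = first-round hits that could not be retested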;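 also: growth measured after seven days incubation then overnight dye step; 0% = bacteria only wells and 100% = bacteria with antibiotic; twin plates without the antibiotic show which effects depend on it; some results filed as inactive read as strong as hits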
YopH PTP inh: YopH tyrosine phosphatase inhibitors, primary screen, biochemical, fluorescence Ex485/Em525; inhibition, %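 (about 10 µM by stock and volumes)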; actives 0.16% (n = 140,000);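 active = inhibition of 50% or more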;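 also: controls were vehicle for no effect and minimum signal wells for full effect; inactives centre near -20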
RecA intein inh: Mtb RecA intein splicing inhibitors, primary screen, biochemical, fluorescence, HTS | Protein RecA (Mycobacterium tuberculosis (strain ATCC 25618 / H37Rv)), P9WHJ3 | cell-free RecA intein splicing | inhibition, %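 (about 9 µM by stock and volumes)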 | actives 0.75% (n = 290,000); in the data active = inhibition above about 30%; inconclusive = no clear call, values can overlap the other calls;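 also: 0% = vehicle wells and 100% = reference inhibitor control wells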
Target sequence (P9WHJ3 whole entry, looked up): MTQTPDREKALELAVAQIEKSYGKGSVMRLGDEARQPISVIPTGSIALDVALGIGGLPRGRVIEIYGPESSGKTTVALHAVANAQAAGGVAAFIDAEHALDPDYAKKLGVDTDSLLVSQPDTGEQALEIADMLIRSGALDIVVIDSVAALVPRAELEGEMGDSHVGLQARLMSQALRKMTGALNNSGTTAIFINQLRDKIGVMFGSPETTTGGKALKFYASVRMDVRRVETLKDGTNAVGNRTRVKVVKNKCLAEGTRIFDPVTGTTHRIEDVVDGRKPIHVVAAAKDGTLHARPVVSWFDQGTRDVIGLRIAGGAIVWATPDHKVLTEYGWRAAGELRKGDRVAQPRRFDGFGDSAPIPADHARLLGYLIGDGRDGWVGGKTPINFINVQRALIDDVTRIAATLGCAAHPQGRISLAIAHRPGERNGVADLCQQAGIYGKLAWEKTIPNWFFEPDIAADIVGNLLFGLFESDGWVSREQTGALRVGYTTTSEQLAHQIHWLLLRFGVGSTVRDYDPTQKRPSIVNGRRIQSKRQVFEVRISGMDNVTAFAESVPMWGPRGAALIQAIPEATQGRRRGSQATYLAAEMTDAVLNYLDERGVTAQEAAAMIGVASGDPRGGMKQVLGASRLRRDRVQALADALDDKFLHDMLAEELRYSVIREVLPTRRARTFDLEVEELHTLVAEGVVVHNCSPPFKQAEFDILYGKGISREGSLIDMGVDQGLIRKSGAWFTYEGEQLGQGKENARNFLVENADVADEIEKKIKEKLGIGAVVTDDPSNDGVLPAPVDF
Arbovirus inh repeat: also measured in Arbovirus inh; calls as there; inhibition, %; measured here: 10K subset replicate screen; many hits read low in the repeat;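 first of two repeat runs on a subset; 0% = infected and 100% = uninfected wells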
* = called active by the depositor; ? = inconclusive; · = no result given. This is a subset; count on the stated rates, not on these rows.

SMILES	Arbovirus inh	Mtb growth	Mtb bLac sens	YopH PTP inh	RecA intein inh	others
COc1cccc(C(C(=O)NCC2CCCO2)N(C(=O)Cn2nnc3ccccc32)c2ccc(NC(C)=O)cc2)c1 (stereo unspecified)	·	·	-6	·	1.1
COc1ccccc1NC(=O)CC1Nc2ccccc2NC1=O (stereo unspecified)	5	-2%	-10	-7	-0.5
O=C(COc1ccccc1)N1CCCCCCC1	·	·	6	·	-0.1
CCOC(=O)CSCc1c(C#N)c2ccccc2n1C	3	-5%	-10	-25	·
COc1cc(NS(=O)(=O)c2ccc(NC(=S)NC(=O)c3ccco3)cc2)ncn1	-1	-4%	-2	·	-1.6
CCCc1nc(Nc2nc3ccccc3o2)nc(C)c1C(=O)OCC	2	-3%	-14	10	·
Cc1c(N=C2NC(=O)/C(=C/c3cccc([N+](=O)[O-])c3)S2)c(=O)n(-c2ccccc2)n1C	6	3%	-4	-27	1.1
COc1cccc(NC(=O)N(C2CCCCC2)C(C)c2cccs2)c1 (stereo unspecified)	-8	-5%	?	-6	7.6
COCCOC(=O)c1c(C)n(C)c2ccc(OC(=O)c3ccccc3OC)cc12	·	·	1	·	1.3
COc1ccc(N2CCN(C(=O)C3CCCN(c4ncnc5c4nc4n5CCCCC4)C3)CC2)cc1 (stereo unspecified)	·	·	0	·	-2.3
N#C/C(=C\c1ccccc1Cl)C(=O)Nc1ccccn1	·	·	-6	·	-3.8
CCn1ccnc1CN(C)Cc1nc(-c2cccc(Cl)c2)no1	7	9%	33	·	1.4
N/C(Cc1ccc([N+](=O)[O-])cc1)=N\OC(=O)c1ccc2ccccc2c1	13	6%	15	-14	-1.6
CCOC(=O)Nc1ccc(=O)n(Cc2c(Cl)cccc2Cl)c1	1	2%	-14	-42	2.3
CN1CCN(C(=O)/C(=C\c2cccs2)NC(=O)c2ccccc2)CC1	·	·	-1	·	0.1
O=C(CN1C(=O)CSCC1=O)NCc1ccc(F)cc1	-10	-4%	-7	-8	0.1
NC(=O)c1ccc(Nc2ccc3c(c2)CCC3)c([N+](=O)[O-])c1	·	·	-8	·	1.3
COc1cc(CCC(=O)N2CCN(S(=O)(=O)c3ccc(C)c(C)c3)CC2)cc(OC)c1OC	4	-13%	-17	-29	·
CC(=O)Nc1cccc(C(=O)/C=C/c2ccc(/C=C/C(=O)c3cccc(NC(C)=O)c3)cc2)c1	7	2%	8	-8	2.9
C=CCNCCOc1ccc(C(C)(C)c2ccccc2)cc1	-10	-5%	4	-22	5.1
COc1ccc(S(=O)(=O)N(C)CC(=O)NCC2CCCO2)cc1OC (stereo unspecified)	·	·	-5	·	0.7
Cc1ccc(S(=O)(=O)c2c(COC(=O)c3ccc(Cl)cc3)c(-c3ccccc3)nn2C)cc1	-27	4%	-16	-24	-0.4
CCn1nc(C)c(/C=N/NC(=O)Cn2nnc(N)n2)c1C	·	-6%	1	·	-0.9
Clc1ccc(C[n+]2c(-c3ccccc3)cc(-c3ccccc3)cc2-c2ccccc2)cc1	·	·	100	·	20
N=C(N)SCc1ccccn1	1	-4%	5	-19	-7.2
CCCn1cc(S(=O)(=O)c2ccc(Cl)cc2)c(=O)c2cc(OC)ccc21	·	·	5	·	-1.9
COc1ccccc1/C=C/C(=O)NC1CC2CCC1C2 (stereo unspecified)	·	·	62	·	0.9
CCOc1cc(CNCc2cccnc2)cc(Br)c1OCC(N)=O	·	·	-11	·	-2.9
COc1ccc(OC)c(N2CC(O)(c3cccs3)[N+]3=C2SCCC3)c1 (stereo unspecified)	6	-3%	-8	·	0.3
CCNc1ccc(Br)cc(C(=O)/C=C/c2ccc(Cl)cc2)c1=O	-32	1%	3	-25	-0.4
O=C(Cn1nnc2ccccc21)c1ccc(Br)cc1	·	11%	2	·	7.5
CCCCC1=CC2=C(c3ccco3)C(=O)C(C)(OC(=O)c3ccc(OC)cc3)C(=O)C2=CN1CC1CC1 (stereo unspecified)	·	2%	18	·	-2.0
CCOc1ccc(C2NC(=O)Cc3cc(OC)c(OC)cc32)cc1 (stereo unspecified)	·	·	-2	·	-4.5
CCCCC(=O)Oc1ccccc1C1SCc2cc(C)c(C)cc2CS1	19	-3%	10	-35	-0.9
C=CC[N+]1(CC=C)CCOCC1	3	-2%	-1	·	1.1
Cc1ccc(C(=O)Nc2nc3ccc(S(C)(=O)=O)cc3s2)s1	-17	-5%	-2	-18	-2.6
O=C(/C=C/c1nc2ccccc2s1)N1CCCCCC1	-2	-3%	-6	·	0.1
O=C(Nc1cccnc1Cl)c1ccc2c(Cl)c3c(nc2c1)CCC3	-8	-7%	·	·	-1.5
CN(C)S(=O)(=O)c1cccc(NC(=O)CSc2nc3c(cc2C#N)C(=O)CC(C)(C)C3)c1	-19	8%	-6	-22	0.5
Cc1nc(-c2ccc(S(=O)(=O)N3CCCN(CCc4ccccc4)CC3)s2)cs1	·	61%	82	·	3.5
CCN(CC)CCCNC(=O)c1cn(CC)c2cc(N3CCN(C(=O)c4ccco4)CC3)c(F)cc2c1=O	·	·	3	·	-1.3
C/C(N)=C(/C#N)C(=O)COC(=O)[C@@H](NC(=O)c1ccccc1Cl)C(C)C	18	4%	5	·	0.9
CN(CC(=O)Nc1ccc2c(c1)CCC2)CC(=O)Nc1ccccc1Br	-1	22%	34	·	1.7
O=C(COc1coc(CN2CCN(c3ccccc3F)CC2)cc1=O)NC1CCCC1	·	·	-1	·	1.2
C/C=C(\C)c1nnc(NC(=O)c2ccco2)s1	9	-12%	5	-27	1.9
Cc1cccc(NC(=S)N(CCN(C)C)Cc2cc3cc(C)ccc3[nH]c2=O)c1	-3	-9%	1	·	-4.3
CN(Cc1cccs1)C(=O)Cc1c[nH]c2ccccc12	-8	-1%	2	-14	-7.7
CC(=O)[C@@H]1[C@@H](C)N(Cc2ccccc2)C(=O)N[C@H]1c1cccc(C(F)(F)F)c1	·	15%	-8	·	-0.4

Next section; it opens with the three that closed the last part.
SMILES	Arbovirus inh	Mtb growth	Mtb bLac sens	YopH PTP inh	RecA intein inh	others
Cc1cccc(NC(=S)N(CCN(C)C)Cc2cc3cc(C)ccc3[nH]c2=O)c1	-3	-9%	1	·	-4.3
CN(Cc1cccs1)C(=O)Cc1c[nH]c2ccccc12	-8	-1%	2	-14	-7.7
CC(=O)[C@@H]1[C@@H](C)N(Cc2ccccc2)C(=O)N[C@H]1c1cccc(C(F)(F)F)c1	·	15%	-8	·	-0.4
COc1cc(C2=NOC(C(=O)NCc3cccs3)C2)cc(OC)c1OC (stereo unspecified)	1	-3%	-5	-30	-2.1
CN1CCN(CC(O)COc2ccc(C(=O)O)cc2)CC1 (stereo unspecified)	·	·	1	·	-0.3
CC1(C(=O)O)Oc2cccnc2NC1=O (stereo unspecified)	10	0%	1	·	-2.0
N/C(=N\OC(=O)C12CC3CC(CC(C3)C1)C2)c1ccccc1	-11	2%	34	-14	-2.7
O=S(=O)(NCCSCc1c(Cl)cccc1Cl)c1ccc2c(c1)OCCO2	-22	3%	6	-46	4.4
CCC(=O)C1CCCN(C(=O)CCc2nnc(-c3ccc4c(c3)OCO4)o2)C1 (stereo unspecified)	·	·	-7	·	0.4
CN(CCc1ccccn1)C(=O)CCC1CCCN(C(=O)c2ccc3c(c2)OCCO3)C1 (stereo unspecified)	4	6%	-5	·	0.5
O=C(COC(=O)CCCc1nc2ccccc2s1)NC(=O)NCc1ccco1	-4	-8%	-19	·	2.7
Cc1ccc(NC(=S)NCc2ccc(Cl)cc2)c(OC(F)F)c1	·	·	2	·	0.8
O=Cc1ccnc(-c2ccc(OC(=O)c3ccco3)cc2)n1	-2	5%	4	·	36*
Cc1nc2ccccc2c(=O)n1NC(=O)c1ccccc1Br	·	·	4	·	-1.8
Cc1ccc(CSCCNC(=O)CN(c2cccc([N+](=O)[O-])c2)S(C)(=O)=O)cc1	-2	0%	-1	·	1.2

Compounds listed so far that contain an NH in an aromatic ring, in the order listed:
SMILES	Arbovirus inh	Mtb growth	Mtb bLac sens	YopH PTP inh	RecA intein inh	others
Cc1cccc(NC(=S)N(CCN(C)C)Cc2cc3cc(C)ccc3[nH]c2=O)c1	-3	-9%	1	·	-4.3
CN(Cc1cccs1)C(=O)Cc1c[nH]c2ccccc12	-8	-1%	2	-14	-7.7

The listing picks up; the 4 compounds before the break are reprinted first.
SMILES	Arbovirus inh	Mtb growth	Mtb bLac sens	YopH PTP inh	RecA intein inh	others
Cc1ccc(NC(=S)NCc2ccc(Cl)cc2)c(OC(F)F)c1	·	·	2	·	0.8
O=Cc1ccnc(-c2ccc(OC(=O)c3ccco3)cc2)n1	-2	5%	4	·	36*
Cc1nc2ccccc2c(=O)n1NC(=O)c1ccccc1Br	·	·	4	·	-1.8
Cc1ccc(CSCCNC(=O)CN(c2cccc([N+](=O)[O-])c2)S(C)(=O)=O)cc1	-2	0%	-1	·	1.2
CC1CCCCN1C(=O)c1ccccc1NC(=O)c1ccco1 (stereo unspecified)	14	6%	3	-31	-0.2	Arbovirus inh repeat=3
CCOC(=O)C(=O)NNc1ccccc1OC	·	4%	37	·	-7.7
CCc1ccc(OCCOCC(O)CNC(C)(C)C)cc1 (stereo unspecified)	1	-5%	-6	-22	-3.0
O=C1c2oc3ccc(Cl)cc3c(=O)c2C(c2ccccn2)N1CCCN1CCOCC1 (stereo unspecified)	·	0%	-2	·	1.0
Cc1cnc(C)c(N2CCN(Cc3nc(-c4ccc(C)o4)oc3C)CC2)n1	0	0%	0	·	-1.4
CN1C(=O)S/C(=C/c2cccnc2)C1=O	4	4%	6	-8	-0.8
O=C(NC(=S)Nc1nc2ccc(F)cc2s1)c1ccco1	1	49%	7	·	-2.8
CC(=O)c1c(C)nc(C)nc1NC(=O)Cc1ccccc1	3	67%	-9	-20	1.0
NS(=O)(=O)c1ccc(NC(=O)COC(=O)CNC(=O)C23CC4CC(CC(C4)C2)C3)cc1	4	1%	-6	·	-2.5
O=C(Nc1ccc(Cl)cc1F)c1ccc(COc2c(F)c(F)c(F)c(F)c2F)o1	7	-5%	1	-37	3.8
COc1ccc(N2CC(NC(=O)Nc3ccccc3)CC2=O)cc1 (stereo unspecified)	-3	0%	-2	·	-1.1
O=C(COc1ccccc1Cl)N1CCN(c2ncccn2)CC1	2	3%	?	-40	1.2
Cc1ccc2nc(N(CCCN(C)C)C(=O)c3cc(-c4cccs4)nc4ccccc34)sc2c1	·	·	100	·	12
CCOc1ccc(C(=O)NCCC(=O)N2CCC3(CC2)NCCc2[nH]cnc23)cc1	·	·	2	·	-3.5
O=C(NCCCn1ccnc1)c1ccc(Cl)s1	·	·	-9	·	-0.6
O=C(N1CCOCC1)N1CCN(C(=O)N(c2ccccc2)c2ccccc2)CC1	2	12%	6	-23	1.3
Fc1cccc(/C=N/Nc2ccccn2)c1	0	-1%	-4	·	1.1
COc1cc(C2NC(=O)NC(c3ccccc3)=C2C(C)=O)c(Cl)cc1OCC(=O)O (stereo unspecified)	9	0%	0	·	-0.6
CCC(CC)C(=O)Nc1nnc(S(=O)(=O)N(CC)c2ccc(OC)cc2)s1	·	·	16	·	-3.0
Fc1ccccc1/C=C1\CCCC2=C1NC(=S)NC2c1ccccc1F (stereo unspecified)	-6	-4%	2	·	13
Cc1cc(C)nc(Nc2cccc(Cl)c2)n1	·	·	0	·	-0.8
Cc1cc(C)n2ncc(C(=O)NCCc3ccccc3)c2n1	-2	2%	8	-7	2.0
Cc1ccc(-c2cc(NC(=O)CSc3n[nH]c(N)n3)n(-c3ccccc3)n2)cc1	-2	2%	2	-15	-0.8
COc1cc(/C=C2\SC(=S)N(Nc3ccccc3)C2=O)ccc1O	-23	56%	37	-22	6.7
Cc1ccc(S(=O)(=O)Nc2ccc(S(=O)(=O)Nc3ncccn3)cc2)cc1	-9	6%	36	-26	2.7
CCC(=O)NC(c1ccccc1)c1c(O)ccc2ccccc12 (stereo unspecified)	·	·	?	·	-2.9
O=C(Nc1cccc(NC(=O)c2ccc(F)cc2)c1)c1ccc(F)cc1	·	·	-3	·	-4.4
O=C(CSc1nncc2ccccc12)Nc1cccc(O)c1	·	·	7	·	0.0
O=C(CCc1ccccc1)NCC(=O)N/N=C/c1ccc(O)cc1O	·	-7%	2	·	-3.7
Cc1cc(C)n(-c2nnc(NC34CC5CC(CC(C5)C3)C4)nn2)n1	-4	26%	97	-32	-2.6
COc1ccc(C(=O)N2CCCC2)cc1S(=O)(=O)N1CCC(C)CC1	-2	-2%	-2	-8	-2.7
Cc1oc(CC(C)C)cc1C(=O)Nc1ccc(C(=O)O)cc1	8	-5%	6	-48	0.6
N=c1c2ccccc2nc2n1CCCCCCCCCCC2	·	·	8	·	2.5
